# BasE inh: BasE siderophore biosynthesis inhibition; 0.1% of 84,000 active; purified BasE, fluorescence polarization binding displacement; inhibition, % (concentration not given with the values);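 active means both replicates above 25% with normal brightness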;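 further: 0% = negative plate control signal and 100% = positive plate control signal; stock transfer was 100 nL into about 30 µL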
# LANA-nucl inh: inhibitors of KSHV LANA binding to nucleosomes; FITC-LANA1-23 / chicken nucleosome fluorescence polarization; hits give low values; z-score (concentration not given with the values); 0.3% of 51,000 active; AID 720717;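 active means both repeat wells score below -2 in polarization z-score versus plate sample wells, excluding overly bright wells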;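 further: 100 nL library stock added to about 30 µL; numbers are from one replicate; some results filed as inactive read as strong as hits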
#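 Assay system: purified chicken nucleosomes with FITC-labelled LANA N-terminal peptide (1-23) / Probe or stimulus: 50 nM FITC-LANA1-23 probe / Compound dosing: pin-transferred compound, 100 nL / Times: compound with peptide–nucleosome mix 10–45 min at room temperature / Technique: fluorescence polarization, 480 nm excitation, 535 nm parallel and perpendicular emission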
# * hit, by the source's call; x = no result given.
# Sample of the layout, 6 compounds:
SMILES,BasE inh,LANA-nucl inh
Cc1cc(N=Cc2cc(Cl)cc(Cl)c2O)no1,4.0,x
CCCNC(=O)CSc1nnc(-c2cccs2)o1,0.7,x
CN1/C(=C\C=C(C#N)C#N)C(C)(C)c2ccccc21,12.3,x
CCNC(=O)c1c(-c2c(Cl)cccc2Cl)noc1C,-1.7,0.382
COC=Nc1c(C(=O)OC)n(Cc2ccccc2)c2ccccc12,2.4,x
Cc1cccc(Cn2c(=O)n(Cc3ccco3)c(=O)c3sc4ccccc4c32)c1,-1.8,-0.694

# The list itself, from the start:
SMILES,BasE inh,LANA-nucl inh
Cc1cc(N=Cc2cc(Cl)cc(Cl)c2O)no1,4.0,x
CCCNC(=O)CSc1nnc(-c2cccs2)o1,0.7,x
CN1/C(=C\C=C(C#N)C#N)C(C)(C)c2ccccc21,12.3,x
CCNC(=O)c1c(-c2c(Cl)cccc2Cl)noc1C,-1.7,0.382
COC=Nc1c(C(=O)OC)n(Cc2ccccc2)c2ccccc12,2.4,x
Cc1cccc(Cn2c(=O)n(Cc3ccco3)c(=O)c3sc4ccccc4c32)c1,-1.8,-0.694
Cc1cc2oc(=O)cc(-c3cc4ccccc4o3)c2cc1O,3.0,-0.73
CCOc1ccccc1COC(=O)c1cccc(-n2cnnn2)c1,-0.5,x
Cc1ccc2[nH]c(=O)c(CN(CCCO)C(=O)NC3CCCCC3)cc2c1,0.0,0.891
COc1ccccc1C(=O)COC(=O)c1ccc(CN2CCCC2=O)cc1,0.2,x
O=C(O)COc1nc(-c2ccccc2)sc1C(=O)O,0.3,0.057
NC(=O)/C(=C\c1ccccc1O)C(N)=S,-0.2,x
O=C1C2CC=CCC2C(=O)N1CC(=O)N1N=C2/C(=C/c3cccs3)CCCC2C1c1cccs1 (configuration not stated),2.3,x
CCOc1ccc(N2C(=O)CC(N(CCc3ccccc3)C(C)=O)C2=O)cc1 (configuration not stated),-1.5,0.658
Cc1csc(=Nc2ccccc2)n1-c1ccccc1,-0.4,0.318
O=C(CCOc1ccccc1)Nc1nc2cc3c(cc2s1)OCO3,0.9,-1.08
CCn1cnc2sc(C)c(C)c2c1=O,-0.6,-2.09
COC(=O)C1CC(O)CN1S(=O)(=O)c1ccc2ccccc2c1 (configuration not stated),2.2,x
Cn1c2ccccc2c2ccccc21,2.1,-1.41
N#Cc1c(-c2ccc(Cl)cc2)c(C#N)c2sc3ccccc3n2c1=O,0.1,x
CN(c1ccc(-c2csc(NC(=O)CCCc3nc4ccccc4c(=O)[nH]3)n2)cc1)S(C)(=O)=O,-0.7,x
NC(=O)c1ccccc1-n1ccnc1,x,-0.889
CC1=C(C(=O)C(F)(F)F)CCC(=O)N1C1CCCCCC1,0.0,x
CC(=O)NCCNc1nc(-c2cccnc2)nc2ccccc12,1.8,x
Cc1cnc(C(=O)OCc2cc(=O)n3ccsc3n2)cn1,-1.8,x
# Next part:
SMILES,BasE inh,LANA-nucl inh
O=c1oc2ccccc2c2c1ncn2-c1ccccc1,-0.6,-0.282
CCCNC(=O)N1CCCCC1C (configuration not stated),-0.6,2.23
c1ccc2sc(N3CN(CCN4CCOCC4)CN(c4nc5ccccc5s4)C3)nc2c1,-3.1,1.93
COc1cccc(NC(=O)CCN2CC(C)CC(C)C2)c1 (configuration not stated),-1.6,-0.952
O=C(OCN1C(=O)c2ccccc2C1=O)c1ccccc1O,2.5,x
COc1ccc(OCCSc2ncn[nH]2)cc1,-3.9,x
CS(=O)(=O)Nc1ccc(-c2n[nH]c(=S)n2-c2ccccc2)cc1,0.4,-0.517
CCOc1ccc(OCC(=O)OC(C)C(=O)Nc2ncc(Cl)cc2Cl)cc1 (configuration not stated),-0.4,x
CCCC(C)NC1=NCCCCC1 (configuration not stated),2.0,x
CCC(C(=O)Nc1ccc(N2CCOCC2)cc1)c1ccccc1 (configuration not stated),-1.3,x
OC(c1c(F)c(F)c(F)c(F)c1F)c1c(F)c(F)c(F)c(F)c1F,4.4,-0.557
COC(=O)Cc1c(C)c2ccc(OC(C)C)cc2oc1=O,1.7,0.044
CN(C)C(=O)c1cccc2c1-c1ccccc1C2,1.7,0.335
Cc1ccc(S(=O)(=O)c2nc(N3CCN(c4ccccc4)CC3)sc2Cl)cc1,0.4,x
Cc1ccc(NC(=O)COc2ccc(/C=c3/sc4n(c3=O)CCN=4)cc2)cc1,2.0,-1.09
COC(=O)CN1C(c2ccc(OC)cc2)=Nc2ccc(Cl)cc2C1c1ccccc1 (configuration not stated),-0.9,x
O=C1SCCC1NS(=O)(=O)c1ccc(Cl)c(Cl)c1 (configuration not stated),0.7,0.105
CCC12CN(C(=O)c3ccco3)CC(CC)(CN(C(=O)c3ccco3)C1)C2=O,0.5,0.212
CCOC(=O)c1c2c3c(c(Cl)ccc3[nH]c1=O)C(=O)c1ccccc1-2,7.2,x
O=C(c1ccno1)n1nccc1-c1cc(-c2ccccc2)no1,-1.8,x
O/N=C/c1ccco1,0.3,x
CCn1c(-c2ccc3c(c2)OCCO3)cnc1SCC(=O)Nc1sccc1C#N,0.1,x
COc1ccc(CN(C(=O)CN2C(=O)COc3ccccc32)C2CCCC2)c(OC)c1,2.0,-1.61
CCN(CC)C(=O)NCC1CCCO1 (configuration not stated),1.5,-0.887
CCN1CCN(Cc2ccc(NC(=O)c3ccc4c(c3)N(CC)CCS4)cc2)CC1,-3.5,0.476

# Random excerpt: two entries already listed, in no set order.
SMILES,BasE inh,LANA-nucl inh
CCOc1ccc(OCC(=O)OC(C)C(=O)Nc2ncc(Cl)cc2Cl)cc1 (configuration not stated),-0.4,x
O=C1SCCC1NS(=O)(=O)c1ccc(Cl)c(Cl)c1 (configuration not stated),0.7,0.105

# Carrying on:
SMILES,BasE inh,LANA-nucl inh
O=C(NCc1ccccc1)c1ccc(CN2CC(=O)N3CCCCC3C2=O)cc1 (configuration not stated),-0.5,0.861
CCCCCCCc1nc2c(=O)[nH]c3ccccc3c2o1,0.3,1.54
CCCCOc1ccc(C(=O)OC(C)CN(C)C)cc1 (configuration not stated),-4.1,0.614
Cn1nc(-c2ccc(Br)s2)c(Br)c1C(F)(F)F,1.5,-0.399
CCc1ccc(N2CCN(S(=O)(=O)CC34CCC(CC3=O)C4(C)C)CC2)cc1 (configuration not stated),-1.3,0.867
O=C(Nc1cccc2[nH]ncc12)c1ccco1,x,-0.18
COc1cc(/C=C2/SC(=Nc3cc(C)cc(C)c3)NC2=O)cc(Br)c1OC,-0.9,x
CC1CCN(c2ccc(C(=O)O)cc2)CC1,1.9,0.0745
Cc1cc(C(=O)NNCc2ccccc2)no1,-1.7,-0.0495
Cc1cc(C)n(CCC(=O)NCCN2CCN(c3cc(Cl)ccc3C)CC2)n1,1.4,-0.61
CCn1c(C)cc(-c2csc(N)n2)c1C,3.7,0.563
CN1N=C2c3ccccc3CCCC2C1c1cccs1 (configuration not stated),2.3,x
Brc1ccccc1-c1ccc(/C=N/N2CCOCC2)o1,-2.6,x
c1ccc2c(c1)N(CN1CCCC1)CC21OCCO1,1.8,0.512
O=C(CN(CCO)CCO)N(C1CCCCC1)C1CCCCC1,-2.4,-0.246
COc1ccc(N2CCN(CC(=O)NC(=O)NC3CCCC3)CC2)cc1,2.2,x
CC(C)(C)OC(=O)N/N=C\c1cccnc1,-2.0,-0.883
O=C(Nc1ccccc1)Nn1cnnc1,0.8,-0.253
CCOC(=O)Cn1nc(-c2ccc(F)cc2)oc1=O,1.1,x
CCOc1ccccc1C(=O)Nc1ccccc1,0.2,-0.526
COc1ccc(C(=O)CSc2ncccn2)c(OC)c1,5.3,x
CC(=O)Nc1ccc(NC(=O)/C=N/O)cc1,0.9,x
CC(CC(=O)O)CC(=O)Nc1ccccc1C(=O)O (configuration not stated),1.6,x
CCc1ccc(N=C2NC(=O)/C(=C/c3cc(C)n(CC)c3C)S2)cc1,-0.7,-0.131
N#CCCn1nc(-c2ccccc2)cc1Nc1ccccc1N,2.3,x
# New compounds follow
SMILES,BasE inh,LANA-nucl inh
c1nc2c3c4c(sc3ncn2n1)CCCC4,-0.9,-0.617
CCOc1ccc(-c2c(C)sc(=Nc3ccccc3)n2Cc2ccco2)cc1,0.1,x
COC(=O)c1c(NC(=S)Nn2cnnc2)sc2c1CCC(C)C2 (configuration not stated),4.1,0.467
C=CCn1c(SCC(=O)NC(=O)NCc2ccco2)nc2ccc(Cl)cc2c1=O,0.8,x
O=C(c1ccc(=O)[nH]n1)N1CCN(c2ccccc2)CC1,1.2,-0.105
O=C(O)c1cc(Nc2ccccc2C(=O)O)nc(Nc2ccccc2C(=O)O)n1,3.9,-1.23
O=C1CCC(=O)N1CCc1c[nH]c2ccc(OCc3ccccc3)cc12,1.6,x
Cn1c(C(O)C(O)c2ccccc2)nc2ccccc21 (configuration not stated),2.3,x
Cn1c(=N)n(CC(=O)c2ccco2)c2ccccc21,-1.9,0.391
O=C(COc1ccc2c(c1)OCO2)Nc1cc(Cl)cc(Cl)c1,0.0,0.407
CCCCn1c(N)c(N(Cc2ccccc2)C(=O)COc2ccccc2F)c(=O)[nH]c1=O,2.9,x
CN(C)C(=O)c1cnc(Cl)c2ccccc12,x,0.411
O=C(Nc1ccc(F)cc1)N1CCN(c2ccc3nnc(-c4ccccc4)n3n2)CC1,-1.4,-1.09
O=C(O[C@H]1[C@H](Oc2ccccc2COC(=O)C2(O)C=CCCC2=O)O[C@H](CO)[C@@H](O)[C@@H]1O)c1ccccc1 (some centres not stated),x,-0.204
COc1ccc(-c2nn(CN3CCCC3)c(=S)n2CC(C)C)cc1,-0.6,x
O=S(=O)(c1ccc(Br)cc1)N1CCC(N2CCCCC2)CC1,-0.3,-0.58
O=C(NC1CCS(=O)(=O)C1)c1ccccc1C(=O)c1ccccc1 (configuration not stated),-1.6,0.261
O=C1c2ccccc2C(=O)N1CCN1C(=O)c2ccccc2C1=O,8.4,0.433
CC(Oc1ccccc1F)C(=O)NC1CCS(=O)(=O)C1 (configuration not stated),-2.1,-0.744
COc1ccc(S(=O)(=O)N(CC(=O)NC2CC2)Cc2ccccc2)cc1,2.2,-0.863
CCc1nonc1NC(=O)c1ccccc1,-0.8,0.681
Cc1n[nH]c(C)c1CC(=O)NCCc1ccccc1,-0.7,0.456
O=S(=O)(c1ccc2c(c1)OCCCO2)N1CC=C(c2ccccc2)CC1,x,-0.499
O=C(NCc1ccccc1)C(c1ccc(F)cc1)N(Cc1ccco1)C(=O)c1ccccn1 (configuration not stated),-0.9,-0.127
N#Cc1ccc(C(=O)CSc2n[nH]c(=O)n2Cc2ccco2)cc1,-0.8,0.342

# Compound profiles, as listed above:
# `COc1ccc(-c2nn(CN3CCCC3)c(=S)n2CC(C)C)cc1` as listed: BasE inh = -0.6; LANA-nucl inh = x
# `O=C(Nc1ccc(F)cc1)N1CCN(c2ccc3nnc(-c4ccccc4)n3n2)CC1` as listed: BasE inh = -1.4; LANA-nucl inh = -1.09

# More results follow:
SMILES,BasE inh,LANA-nucl inh
N#CC1=C(NC(=O)c2ccc(Cl)c(Cl)c2)CCC1,2.2,0.39
CC(O)CNc1nc2ccccc2n1CC(=O)NC(C)C(C)C (configuration not stated),-1.5,x
Clc1ccc(-c2ccn[nH]2)cc1,2.9,x
CCOC(=O)/C=C1\CCC(/C=N/Nc2ccccc2)=C1N1CCOCC1,-22.0,x
O=C(c1cnn(-c2nc3ccccc3s2)c1)c1ccccc1O,1.7,x
CN(C)C(=O)CSc1nc(C(C)(C)C)cs1,1.6,-1.58
Cc1cc(C)c(C2=NON3N(C(=O)c4ccc(S(=O)(=O)N5CCOCC5)cc4)c4ccccc4N23)c(C)c1,3.1,0.294
COc1ccccc1CNn1c(C)nnc1SCc1ccccc1F,2.8,0.0525
C=CCN1C(=O)/C(=C2\SC(C)=C(C)N2c2nccs2)S/C1=N\S(=O)(=O)c1ccccc1,13.4,x
CCN(Cc1nnc(-c2ccccc2)o1)C1CCCCC1,0.1,-0.661
Cc1cc(C)nc(SC2=C(Nc3ccc(O)cc3)C(=O)N(Cc3ccccc3)C2=O)n1,1.0,x
O=C(Cc1ccccc1)N=Nc1c(O)[nH]c2ccccc12,0.5,-0.776
CCOc1ccc(C)cc1S(=O)(=O)n1c(C)nc2ccccc21,1.1,-1.1
COC(=O)c1nc(S(C)(=O)=O)ncc1Cl,0.1,x
CCCNc1c(NS(=O)(=O)c2ccc3[nH]c(=O)oc3c2)c(=O)oc2ccccc12,-2.6,2.84
CCN(CC)Cc1ccc(NC(=O)c2cccc(C)c2)cc1,-0.9,-0.922
O=C(COC(=O)/C=C/c1cccs1)Nc1nc2ccccc2s1,-2.1,x
O=C(OCC(=O)N(Cc1ccccc1)C1CCS(=O)(=O)C1)c1ccc(-n2cnnn2)cc1 (configuration not stated),2.2,x
O=C(N/C(=C\c1ccc(F)cc1)C(=O)N1CCOCC1)c1ccccc1,0.5,-0.766
Brc1cnc(-n2cccc2)nc1,x,-0.471
Nn1c(C(=O)NCc2cccnc2)nc2ccccc2c1=O,3.6,x
Cc1ccc(C)c(Oc2ncnc3c2oc2ccccc23)c1,2.1,x
Cc1cc(-n2c(SCC(=O)N3CCCC3)nc3n[nH]c(C)c3c2=N)ccc1Cl,-1.2,-0.53
Cc1ccc(C)n1-c1ccc(-n2cccc2)cc1,1.4,x
O=C(CN(Cc1ccco1)C(=O)c1cc(=O)[nH]c2ccccc12)Nc1ccccc1C(F)(F)F,-1.8,x
Cc1c(OCc2ccc(C(=O)O)o2)ccc2c(-c3ccccc3)cc(=O)oc12,19.4,0.166
O=C(NC1CCCC1)c1ccc2c(=O)n(Cc3ccco3)c(=O)n(Cc3cccc(Cl)c3)c2c1,-0.1,-0.197
COc1ccc(S(=O)(=O)N(Cc2cc3cc4c(cc3[nH]c2=O)OCCO4)C2CCCC2)cc1,2.0,-0.307
Cc1ccc(OC(=O)c2cc3c(C)nn(-c4ccccc4)c3s2)cc1,-2.8,0.876

# Only part of the results is shown; rates above refer to the full screens.
